Rango-impB inh: Rango-importin beta binding inhibition; Q14974; 340,000 compounds, 0.031% hits; Potency, µM (titrated, usually from 92.2 µM), without a hit: top-dose inhibition of complex formation; AID 540263; Rango CFP/YFP FRET sensor + importin beta, 45 min; active = rising FRET ratio curve, often small or poorly fitted; inconclusive = mostly compound fluorescence or quenching in the first reads; inactive = flat curves in all reads;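 note: potency is the fitted concentration of half-maximal effect; 0% = DMSO wells and 100% = buffer wells lacking importin beta; nearly all actives have a fitted effect of over 15% in size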
Target sequence (Q14974 whole entry, looked up): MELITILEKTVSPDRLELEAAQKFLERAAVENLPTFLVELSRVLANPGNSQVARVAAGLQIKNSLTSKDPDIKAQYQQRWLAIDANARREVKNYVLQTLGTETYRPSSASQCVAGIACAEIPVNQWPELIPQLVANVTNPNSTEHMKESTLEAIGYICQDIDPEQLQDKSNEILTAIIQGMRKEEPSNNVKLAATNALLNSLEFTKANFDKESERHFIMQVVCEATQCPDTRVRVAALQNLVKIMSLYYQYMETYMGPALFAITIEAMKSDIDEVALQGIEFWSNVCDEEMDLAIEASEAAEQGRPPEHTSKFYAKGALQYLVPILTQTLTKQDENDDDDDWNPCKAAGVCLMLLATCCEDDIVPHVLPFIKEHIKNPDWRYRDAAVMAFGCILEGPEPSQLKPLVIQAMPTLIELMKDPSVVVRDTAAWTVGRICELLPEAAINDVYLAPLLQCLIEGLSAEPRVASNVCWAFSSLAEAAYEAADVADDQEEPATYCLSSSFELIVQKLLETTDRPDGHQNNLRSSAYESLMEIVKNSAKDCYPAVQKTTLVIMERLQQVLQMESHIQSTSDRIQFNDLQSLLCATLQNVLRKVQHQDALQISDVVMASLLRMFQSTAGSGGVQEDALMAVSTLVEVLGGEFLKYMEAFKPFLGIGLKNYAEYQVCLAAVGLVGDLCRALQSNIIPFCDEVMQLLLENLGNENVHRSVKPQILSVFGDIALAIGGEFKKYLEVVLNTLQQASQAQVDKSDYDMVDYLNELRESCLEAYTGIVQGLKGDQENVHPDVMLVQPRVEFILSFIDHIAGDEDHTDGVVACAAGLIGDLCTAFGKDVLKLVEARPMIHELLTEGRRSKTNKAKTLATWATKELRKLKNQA
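FRET biosensor Rango (snurportin 1 IBB between N-terminal EYFP and C-terminal Cerulean), 50 nM in PBS/1 mM DTT/0.02% Tween-20/0.1% BSA, preincubated 5 min RT with compound; 0.125 microM importin beta added, 45 min RT, CFP/YFP FRET ratio read.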
Rango release inh: inhibitors of RanGTP-induced Rango-importin beta complex dissociation | Biochemical FRET Rango-importin beta, RanGTP-induced dissociation | Potency, µM (titrated, usually from 46.1 µM), for inactives: at the top dose activity change, negative = inhibition | 340,000 compounds, 0.071% hits | O95149+P62826; active means falling FRET ratio curve, often poorly fitted, with flat reads before Ran was added; inconclusive means other falling curves, or compound fluorescence or quenching; inactive means flat or rising ratio curve;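 note: potency is the fitted concentration of half-maximal effect; % of control where 0% means no effect; nearly all actives have a fitted effect of over 45% in size; -100% = wells without RanGTP and RCC1; the record marks most hits as doubtful in a second field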
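Compounds sat 5 min at room temperature with 0.1 uM Rango biosensor plus 0.25 uM importin beta, then FRET pre-read. RanGTP-RCC1 (0.6 uM Ran, 2mM GTP, 0.2 uM RCC1) added for 45 min, and the CFP/YFP post-read measured blocked complex dissociation.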
GLA inh pH 4.5: blocks human alpha-galactosidase A at pH 4.5 | purified enzyme, 4-MU-alpha-Gal fluorescence, pH 4.5 | activity change, negative = inhibition, % at 105 µM | P06280 | 230,000 tested, under 10 active; inconclusive = small, poorly fitted or top-dose-only inhibition, or a rising curve; inactive = flat fitted curve, though single readings scatter; no compound was filed as active;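 note: 0% = full activity with enzyme and -100% = basal without enzyme; dose as in the result columns while the protocol names 77 µM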
miR-21 reporter: miR-21 reporter, rising signal; HeLa miR-21 FLuc reporter, luciferase, 48 h; Potency, µM (doses to about 38.3 µM), for inactives: at the top dose reporter change, positive = more light; 340,000 tested, under 10 active; AID 2288; active = well fitted rising curve with a large enough effect; inconclusive = small, poorly fitted or top-dose-only effect; inactive = no such curve, though single readings can be large or run the other way;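 note: % of control where 0% means no effect; miR-21 action dims this reporter so a rising signal means less miR-21 action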
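HeLa cells endogenously expressing miR-21, stably carrying CMV-driven firefly luciferase with a downstream miR-21 binding site, 2000 cells/well. Titrations up to approximately 40 uM, 48 hours; luciferase luminescence read.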
Numbers without * were called inactive; u = inconclusive; x = no result given; & = joins results of further samples.

SMILES | Rango-impB inh | Rango release inh | GLA inh pH 4.5 | miR-21 reporter
COc1ccc(C2C(C(N)=O)=C(C)Nc3ncnn32)cc1 (centres undefined) | -4.3% | -6% | 1 | 0%
COc1cc(/C=C(\C#N)C(=O)Nc2cc(C(F)(F)F)ccc2Cl)ccc1OCC(=O)Nc1cccc(C(F)(F)F)c1 | -3.8% | -11% | 2 | -2%
O=C(Nc1nccs1)c1cc(Cl)nc2ccccc12 | 4.7% | 1% | -2 | 17%
O=C(CN(Cc1ccco1)C(=O)CNS(=O)(=O)c1ccc(Cl)cc1)NC1CCCCC1 | 0.2% | -6% | 7 | 2%
Cc1cc(Cl)ccc1OCC(=O)N(Cc1ccco1)c1c(N)n(Cc2ccccc2)c(=O)[nH]c1=O | -4.2% | -1% | x | x
CC1=C(C(=O)OC2CCCCCCC2)C(c2ccc(O)cc2)NC(=O)N1 (centres undefined) | 2.5% | -4% | -1 | -16%
CC(C)Cn1nc(NC(=O)c2cccs2)c2cc3ccccc3nc21 | u | u | 2 | 2%
O=C(CSc1ccc(-c2cccnc2)nn1)Nc1ccc(Br)cc1 | -5.1% | 2% | x | 4%
Cc1ccc(OCCn2cc(C(=O)O)c3ccccc32)cc1 | -0.4% | -4% | -11 | -24%
O=C(Cn1c(CCCO)nc2ccccc21)Nc1ccccc1-c1ccccc1 | 0.0% | 0% | x | -3%

Given in markdown: part of the list above.
| Molecule | Rango-impB inh | Rango release inh | GLA inh pH 4.5 | miR-21 reporter |
| --- | --- | --- | --- | --- |
| Cc1cc(Cl)ccc1OCC(=O)N(Cc1ccco1)c1c(N)n(Cc2ccccc2)c(=O)[nH]c1=O | -4.2% | -1% | x | x |
| CC1=C(C(=O)OC2CCCCCCC2)C(c2ccc(O)cc2)NC(=O)N1 (centres undefined) | 2.5% | -4% | -1 | -16% |
| CC(C)Cn1nc(NC(=O)c2cccs2)c2cc3ccccc3nc21 | u | u | 2 | 2% |
| O=C(CSc1ccc(-c2cccnc2)nn1)Nc1ccc(Br)cc1 | -5.1% | 2% | x | 4% |
| Cc1ccc(OCCn2cc(C(=O)O)c3ccccc32)cc1 | -0.4% | -4% | -11 | -24% |

Other entries:
SMILES | Rango-impB inh | Rango release inh | GLA inh pH 4.5 | miR-21 reporter
Cc1ccccc1OCC(=O)Nc1cccc(Cl)c1C | -0.8% | 4% | x | -12%
CCN(CC)Cc1cc(C(=O)O)c(C)o1 | -1.4% | 3% | 7 | -28%
CN(C)c1ccc(/C=C2\SC(=O)N(CC(O)Cn3c4ccccc4c4ccccc43)C2=O)cc1 (centres undefined) | u | u | -1 | -4%
O=[N+]([O-])c1ccccc1S(=O)(=O)Nc1ccc(S(=O)(=O)N2CCOCC2)cc1 | -0.7% | 2% | x | -1%
CCCn1c(N)c(C(=O)CSc2nc(C)nc3sc(C)c(C)c23)c(=O)[nH]c1=O | 1.1% | 16% | x | x
O=C(CN1CCS(=O)(=O)CC1)N/N=C/c1cccc(C(F)(F)F)c1 | 1.8% | -17% | x | -3%
CC1CCN(c2c(NCC3CCC(C(=O)NCCCc4ccccc4)CC3)c(=O)c2=O)CC1 (centres undefined) | -2.1% | 1% | 4 | -4%
CC(=O)Nc1ccc(-n2c(=O)c3ccccc3c3ccccc3c2=O)cc1 | -2.1% | 20% | 1 | -3%
O=C(CCc1ccccc1)NNC(=O)COc1ccccc1Cl | -0.1% | 9% | x | -2%
Cc1cc(C)cc(OCC(=O)O/N=C(\N)Cc2ccc([N+](=O)[O-])cc2)c1 | -2.6% | 8% | -8 | -8%
CCOc1ccc(NC(=O)CSc2nnc(C)n2CC2CCCO2)cc1 (centres undefined) | -0.2% | 13% | -4 | -1%
Cc1nn(CC(=O)NCc2ccccc2)c(=O)c2ccccc12 | -1.3% | -1% | 1 | -2%
C/C(=N\OC(=O)Nc1ccc(Cl)cc1)c1ncc(C(F)(F)F)cc1N1CCOCC1 | -0.1% | -5% | -1 | -29%
O=C(COC(=O)c1cccs1)Nc1ccc(S(=O)(=O)N2CCOCC2)cc1 | -0.8% | -17% | 2 | -11%
COCCNC(=O)CCCn1c(=O)c2cc(OC)c(OC)cc2n(CC(=O)c2ccccc2)c1=O | -0.2% | -3% | -3 | 0%
CN1/C(=C/C2CC(=O)N(c3ccc([N+](=O)[O-])cc3)C2=O)C(C)(C)c2ccccc21 (centres undefined) | 5.3% | 1% | 2 | -3%
CCOc1ncccc1C(=O)OCC(=O)Nc1ccc(S(=O)(=O)N2CCOCC2)cc1 | -4.8% | -5% | -10 | -1%
Cc1ccccc1N(C)S(=O)(=O)c1nnc(NC(=O)c2ccco2)s1 | -0.5% | -20% | x | -4%&-50%
Cc1nn(-c2ccccc2)c(C)c1NC(=O)COc1ccc(F)cc1Cl | 1.9% | 8% | 2 | 11%
O=C(Cn1cnc2c(oc3nc4c(cc32)CCCC4)c1=O)Nc1cccc(Cl)c1 | -0.2% | -16% | x | -8%
C=CCN(Cc1ccc(OC)c(OC)c1)C(=O)N1CCOCC1 | -0.4% | 17% | x | -3%
CCCC[n+]1ccn(C2=C([O-])c3ccccc3C(=O)/C2=N\S(=O)(=O)c2ccc(Cl)cc2)c1 | -1.8% | -9% | -3 | 2%
O=C(O)/C=C/C(=O)Nc1cccc(C(F)(F)F)c1 | 1.8% | -8% | 8 | -4%
C/C(N)=C(/C#N)C(=O)COC(=O)c1ccncc1 | -0.1% | 3% | 0 | -3%
CC(C)(C)OC(=O)N1CCC(CC2CC(c3ccccc3)=NO2)(C(=O)O)CC1 (centres undefined) | 0.8% | -1% | x | x
O=C(O)c1ccc(N/N=C/c2ccc(F)c(F)c2)cc1 | -2.4% | -4% | -18 | -37%
Cc1ccc(NC(=O)C2Cc3ccccc3C(=O)O2)cc1 (centres undefined) | -2.6% | 0% | 2 | -44%
COC(CNC(=O)c1cn(C)c2ccc(S(=O)(=O)N3CCOCC3)cc2c1=O)OC | 2.5% | -1% | x | -1%
COc1ccc(-n2c(COc3cccc(C)c3)nnc2SCC(=O)O)cc1 | 1.0% | -8% | x | 1%
C[C@H](O)[C@@H]1C(=O)N2CCc3ccc(-c4ccccc4)cc3[C@@H]2C[C@@H]1N(C)C(=O)c1ccc(C#N)cc1 | 1.0% | 22% | x | x
CC(NC(=O)CN(C)Cc1cccs1)c1ccccc1 (centres undefined) | -1.3% | -6% | 11 | -5%
CN(Cc1ccccc1)c1nc2c(c(=O)n(C)c(=O)n2C)n1CCCc1ccccc1 | u | 0% | -3 | 7%
C[C@H](CO)N1C[C@H](C)[C@@H](CN(C)Cc2ccc(C(=O)O)cc2)Oc2c(NS(=O)(=O)c3ccc(F)cc3)cccc2C1=O | -2.1% | -1% | x | x
O=C(NC1CCCCC1)C1CCCN1S(=O)(=O)c1ccc(Cl)cc1 (centres undefined) | -0.7% | 16% | x | 4%
Cc1ccc(C(=O)NCCS(=O)(=O)N2CCN(c3ccccc3F)CC2)cc1[N+](=O)[O-] | -3.1% | -9% | x | 7%
Cc1[nH]c(=O)[nH]c(=O)c1S(=O)(=O)N1CCCC(C(=O)N2CCN(c3ccccc3Cl)CC2)C1 (centres undefined) | 0.1% | 9% | 3 | 2%
CN1CCN(C(=S)Nc2cccc(C(F)(F)F)c2)CC1 | 0.3% | 15% | 3 | -11%
CC1CCN(C(=O)C(Cc2ccccc2)n2cccc2)CC1 (centres undefined) | 2.9% | -13% | -3 | -2%
Cc1cc(C)c(C#N)c(OCc2ccc(Cl)nc2)n1 | -3.0% | 3% | x | -19%
COc1cccc(-c2c(C(=O)N/N=C(\C)COc3ccccc3)nnn2-c2nonc2N)c1 | 3.5% | 13% | x | 0%
O=C(COC(=O)c1cccs1)Nc1cccc(S(=O)(=O)N2CCOCC2)c1 | -0.6% | 12% | 5 | -7%
Cc1cc(Cl)ccc1OC(C)C(=O)Nc1ccc(S(=O)(=O)Nc2cnc3ccccc3n2)cc1 (centres undefined) | 0.6% | -8% | -3 | -1%
COCC(=O)Nc1nnc(CCc2ccccc2)s1 | -0.1% | 0% | 2 | -17%
COc1ccc(S(=O)(=O)NCC(=O)N(CC(=O)NCC2CCCO2)Cc2ccc(F)cc2)cc1 (centres undefined) | 4.7% | -5% | x | -2%
CC[C@@H]1C(=O)[C@H](Cc2ccccc2)[C@H]2CCCC(=O)N3CC[C@@H]1[C@@H]23 | -1.5% | -17% | x | x
CCOc1ccc(-c2cn(-c3ccccc3OC)c(=S)[nH]2)cc1 | u | -6% | x | 9%
COC(=O)c1ccc[n+](CC(=O)Nc2ccc(OC(F)F)cc2)c1 | -1.0% | 2% | -9 | 0%
O=C(O)c1cc2n(n1)C(C(F)(F)F)CC(C1CC1)N2 (centres undefined) | 1.1% | 0% | 0 | 7%
O=C(NCCCc1ccccc1)C1CCC(=O)N(CCc2ccc(Cl)cc2)C1 (centres undefined) | -0.9% | 0% | x | -11%
CCOC(=O)CNC(=O)Cn1cnc2c(nnn2-c2cccc(Cl)c2)c1=O | -1.9% | -3% | 5 | -2%
Later entries
SMILES | Rango-impB inh | Rango release inh | GLA inh pH 4.5 | miR-21 reporter
CCOc1ccc(S(=O)(=O)N(CC(N)=O)c2ccc(C)cc2)cc1 | 1.8% | -5% | -3 | 0%
Cc1nc2sccn2c(=O)c1CCN1CCC(=C(c2ccccc2)c2ccc(F)cc2)CC1 | x | x | -12&-15 | 9%
COc1cccc(/C=C2\SC(=O)N(CCC(=O)NCCCn3ccnc3)C2=O)c1 | -0.4% | u | x | -3%
Cc1ccc(NC(=O)CC(=O)Nc2ccc(C)c(C)c2)cc1C | -0.2% | 1% | x | 6%
CC(C)(C)OC(=O)NCC(=O)Oc1cc2oc(=O)cc(-c3ccccc3)c2cc1Cl | u | u | 2 | 17%
CCN(CC)CC(O)COc1ccc2c(c1)c(C(C)=O)c(C)n2-c1ccccc1 (centres undefined) | 8.6% | 1% | -1 | -4%
O=C(CNC(=O)c1ccco1)NCC(=O)OCc1c(F)cccc1Cl | -3.2% | 7% | x | -1%
CC(C)COCC1CC2(CC(C)C(=O)CC2=O)C(=O)O1 (centres undefined) | -0.3% | 0% | 5 | -11%
Cc1cc(C)cc(CC2CC(=O)N(c3nc(C)cc(C)n3)C2=O)c1 (centres undefined) | -1.5% | 1% | 1 | -51%
Cc1ccc(N)c2c1OCCC2=O | u | u | -12 | 0%
COc1cccc(CNC(=O)c2c(C)nn(-c3ccccc3)c2C)c1 | 3.3% | 11% | x | -1%
COC(=O)c1ccc(CNC(=O)COC(=O)/C=C/c2cc(OC)c(OC)c(OC)c2)cc1 | -1.1% | -2% | x | x
C/C(NCCCn1ccnc1)=C(\C#N)C(N)=O | -1.9% | 3% | 6 | -28%
N#Cc1ccc(C(=O)Nn2cnnc2)cc1 | -3.5% | 1% | x | 5%
CC(OC(=O)C1CSC2(C)CCC(=O)N12)C(=O)Nc1ccc(F)cc1 (centres undefined) | -3.0% | -3% | x | x
O=C(C1CCN(S(=O)(=O)c2ccc(F)cc2)CC1)N1CCOCC1 | 3.8% | -10% | 9 | 2%
COc1cccc(-n2c(SCC(=O)Nc3nc4ccccc4s3)nc3ccccc3c2=O)c1 | 1.3% | -7% | 5 | 0%
O=C(CNC(=O)c1ccc(-c2ccccc2)cc1)OCc1c(Cl)cccc1Cl | -0.7% | 1% | -8 | -3%
O=C(O)CCC(=O)NNC(=O)COc1ccc(Cl)cc1Cl | 0.8% | -17% | 8 | 4%
COc1cc(NCCCCCCCN)c2ncccc2c1 | -2.8% | 1% | 0 | 13%
COc1ccc(NC2=C(C(C)=O)C(c3ccc4c(c3)OCO4)C(C(C)=O)C(C)(O)C2)cc1 (centres undefined) | 4.4% | -7% | 0 | 0%
COc1ccc(-c2c(C(F)(F)F)oc3c(CN4CCN(C)CC4)c(O)ccc3c2=O)cc1 | 3.2% | 15% | 1 | -2%
C/C(=N\NC(=O)c1ccc(NS(=O)(=O)c2cccs2)cc1)c1ccc(O)cc1O | u | u | 2 | -2%
CC(NC(=O)c1c(F)cccc1Cl)c1ccc(-n2ccnc2)cc1 (centres undefined) | -4.0% | 1% | x | -1%
CC(=O)c1c(C)[nH]c(C(=O)NC2=NCCS2)c1C | 0.0% | -5% | 7 | -34%
OCC1(CCOc2ccccc2)CCN(Cc2cccn2-c2ncccn2)CC1 | 5.4% | 0% | 2 | -1%

Some of the compounds tested (hit frequency here may not be typical).
